Screening data (PubChem)
Anaer choline gr – choline-fed anaerobic bacterial growth inhibition; 55,000 tested, 0.2% active; calls only; Gram-negative bacterium anaerobic choline minimal medium, absorbance growth; hits give low values; many inactives read as strong as hits in the columns shown;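 active means growth z-score on choline under -2 at 7 or 20 h with little or no fall on glycerol, limits in tiers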;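 further: stock transfer was 300 nL into about 50 µL; the organism is E. coli; final concentration not given here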
Anaer choline gr early – second read-out of Anaer choline gr, no call of its own (marks repeat the call); z-score; measured here: choline growth z-score, timepoint 1;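 score of optical density at 7 h as mean of two plates; lower means less growth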
Active calls of the source: *; i = inactive. Only part of the results is shown; count on the stated rates, not on these rows.

Values in the order: Anaer choline gr, Anaer choline gr early
- CC(C)NC(=O)CCc1nc2sc3c(c2c(=O)[nH]1)CCCCC3
→ i, 0.46
- COC(=O)c1cc(S(=O)(=O)N2CCCC2C(=O)NC(C)(C)C)cn1C (stereo unspecified)
→ i, -0.9
- Cc1noc(C)c1S(=O)(=O)N1CCc2nc[nH]c2C1
→ i, -2.27
- COc1ccc2c3c1OC1CC(O)C=C[C@@]31CCN(C)C2 (stereo partly specified)
→ i, 0.37
- Cc1csc(-c2cc(S(=O)(=O)Nc3cccc(C)c3C)c(C)s2)n1
→ i, -0.7
- CC(C)NC(=O)N1CCCC(c2cccc(C(=O)N3CCCN(C)CC3)c2)C1 (stereo unspecified)
→ i, 0.2
- CNC(=O)N1CCCC(c2cccc(C(=O)N(C)Cc3ccccc3)c2)C1 (stereo unspecified)
→ i, 0.29
- CCOC(=O)C1CCN(c2ccc(C(=O)N3CCc4ccccc43)nn2)CC1
→ i, -0.36
- COc1ccc(-c2nc3nc(C)cc(NC(C)C)n3n2)cc1
→ i, 0.05
- Cc1nc(N2CCCCC2)cc(N2CCN(C(=O)Nc3ccc4c(c3)OCCO4)CC2)n1
→ i, 0.34
- CC(C)CCn1c(=O)c2sccc2n2c(=O)n(CC(N)=O)nc12
→ i, -0.32
- Cc1nc(-c2nnn(-c3ccc(Cl)cc3)c2C)sc1C(=O)NC1CCCCC1
→ i, -0.66
- O=C(c1ccccc1F)N1CCN=C1N1CCCCC1
→ i, -0.33
- CCCCOc1ccc(C(=O)N(Cc2ccccc2)C2CCS(=O)(=O)C2)cc1 (stereo unspecified)
→ i, -0.18
- CCN1CCN(C(=O)CNC(=O)N2CCSc3nc(C)cc(C)c32)CC1
→ i, -0.75
- O=C(Cn1ccn2nc(-c3ccc4c(c3)OCO4)cc2c1=O)NCc1ccc2c(c1)OCO2
→ i, 0.02
- O=C(Nc1ccc2c(c1)OCCO2)c1nc2ccccc2nc1N1CCCC1
→ i, -0.5
- COc1ccc(CN2C(=O)C3CCCCC3C2=O)cc1S(=O)(=O)N1CCc2ccccc21 (stereo unspecified)
→ i, 1.25
- Cn1nc(C(=O)N2CCCC2c2ccc(F)cc2)cc1C(F)(F)F (stereo unspecified)
→ i, -0.43
- O=C(NC1CCCC1)C1COc2ccccc2O1 (stereo unspecified)
→ i, -1.06
- NCCCC(N)C(=O)O (stereo unspecified)
→ i, 0.67
- CCCC(O)c1nc2ccccc2n1CCCOc1cccc(C)c1C (stereo unspecified)
→ i, 1.19
- C=CCOc1cccc(C2CC(=O)Nc3c2cnn3-c2nc3ccccc3s2)c1 (stereo unspecified)
→ i, 1.03
- COCc1nc2ccccc2n1CCOc1cccc(C)c1
→ i, -0.87
- CCCSc1nnc2c(n1)OC(c1ccc(F)cc1)Nc1ccccc1-2 (stereo unspecified)
→ i, -0.42
- Cn1c(CCNC(=O)C2CC2)nc2cc(NC(=O)C3CCCCC3)ccc21
→ i, 0.85
- Cc1cc(C)c(S(=O)(=O)NCCc2nc(-c3ccc(F)cc3)n[nH]2)cc1C
→ i, 0.63
- COc1cccc(N2CCN(C(c3ccc(Br)cc3)c3nnc(-c4ccccc4)o3)CC2)c1 (stereo unspecified)
→ i, 1.28
- COc1ccc(C)cc1S(=O)(=O)NCCc1csc(-c2ccc(Cl)cc2)n1
→ i, -0.92
- COCCN1CCc2nc(SCc3ccc(F)cc3Cl)[nH]c(=O)c2C1
→ i, -1.56
- COc1cc(NC(=O)Cn2nc(-c3nc(-c4ccc(C)cc4)no3)c3ccccc32)cc(OC)c1
→ i, -0.37
- CCc1ccc(-c2ccc(=O)[nH]n2)cc1S(=O)(=O)Nc1ccc(C(=O)O)cc1
→ i, -0.69
- O=S(=O)(c1ccc(-c2nnc(C3CCCC3)o2)o1)N1CCCC1
→ i, 1.1
- O=C(CN1C(=O)CCn2nc(-c3cccc(Cl)c3)cc21)N1CCN(c2ccccn2)CC1
→ i, -0.81
- CCn1c(C)ccc(-c2noc(CCC(=O)Nc3ccc(C)cc3)n2)c1=O
→ i, -0.48
- COc1ccc(C2CC(=O)Nc3c2c(C)nn3-c2nc3ccccc3o2)cc1Br (stereo unspecified)
→ i, -0.23
- CCn1cnc2cc(-c3noc(CNC(=O)c4ccc(C)cc4)n3)ccc21
→ i, 0.45
- COc1cccc(NC(=O)Nc2ccc(Nc3cc(N(C)C)nc(C)n3)cc2)c1
→ i, 0.73
- O=C(NCCc1ccccc1)c1ccc2nc3sc4c(c3c(=O)n2c1)CCCC4
→ i, 1.65
- Cc1cc(C)nc(SCC(=O)N2c3ccccc3CCc3ccccc32)n1
→ i, 0.06
- O=C(NCC(=O)N1CCC(NS(=O)(=O)c2ccccc2)CC1)c1ccccc1
→ i, -0.41
- O=C(Cn1c(=O)[nH]c2c(-c3ccccc3)c[nH]c2c1=O)NC1CCCCC1
→ i, 0.38
- O=C1C(=O)N(C2CCN(C(=O)c3ccccc3F)CC2)CCN1Cc1ccc(F)cc1
→ i, -1.11
- O=C(NCCC1=CCCCC1)C1CCN(c2ccc(-c3ccccc3)nn2)CC1
→ i, 0.11
- CCOC(=O)c1cc(S(=O)(=O)NCCC(=O)NC2CC2)cn1C
→ i, 0.31
- Cc1c(CN2CCC3(CC2)OCCO3)nnn1-c1ccc(F)cc1
→ i, -1.58
- O=c1[nH]c2ccccc2c(=O)n1CCc1nc(-c2ccccc2)no1
→ i, 1.02
- O=C(CCc1nc(N2CCCCC2)c2c(-c3ccc(F)cc3)noc2n1)NCCc1cnc[nH]1
→ i, -0.07
- Cc1cc2c(cc1S(=O)(=O)N1CCN(C(=O)c3cccc(Cl)c3)CC1)OCC(=O)N2
→ i, -1.04
- Cc1cccc(-c2nccc(Nc3ccc(C(=O)NCCC(C)C)cc3)n2)c1
→ i, 0.59
- Cc1cc(SC(C)C(=O)N2CCc3ccccc32)nc2ccc(S(=O)(=O)N3CCCC3)cc12 (stereo unspecified)
→ i, -1.38
- Cc1cc(=O)[nH]c(SCc2cc(=O)n3nc(SC(C)C)sc3n2)n1
→ i, 0.22
- Cc1noc2c1C(c1cccc(Cl)c1)C1=C(CC(c3ccccc3O)CC1=O)N2 (stereo unspecified)
→ i, -0.4
- O=C(Cn1ncn2nc3c(c2c1=O)CCCC3)NCc1ccccc1
→ i, -0.46
- O=c1c2sccc2n2c(=S)[nH]nc2n1CC1CCCO1 (stereo unspecified)
→ i, -0.74
- CCS(=O)(=O)N1CCCc2cc(C(=O)N3CCN(c4ccccc4)CC3)ccc21
→ i, -1.56
- Cn1nc(C(=O)N2CCCC(C(=O)NC3CC3)C2)c2c1CCN(C(=O)c1cccc(F)c1)C2 (stereo unspecified)
→ i, -1.18
- O=C(Nc1ccc2c(c1)CCN(Cc1ncn[nH]1)C2)c1ccccc1-c1ccc(C(F)(F)F)cc1
→ i, 0.18
- OC(CCN1CCCC1)(c1ccccc1)C1CCCCC1 (stereo unspecified)
→ i, 0.6
- CC(C)NC(=O)c1cc2c(=O)n(C)ccc2n1C
→ i, -1.08

Structural class: those above with a thiophene ring, fused or not
Values in the order: Anaer choline gr, Anaer choline gr early
- CC(C)NC(=O)CCc1nc2sc3c(c2c(=O)[nH]1)CCCCC3
→ i, 0.46
- Cc1csc(-c2cc(S(=O)(=O)Nc3cccc(C)c3C)c(C)s2)n1
→ i, -0.7
- CC(C)CCn1c(=O)c2sccc2n2c(=O)n(CC(N)=O)nc12
→ i, -0.32
- O=C(NCCc1ccccc1)c1ccc2nc3sc4c(c3c(=O)n2c1)CCCC4
→ i, 1.65
- O=c1c2sccc2n2c(=S)[nH]nc2n1CC1CCCO1 (stereo unspecified)
→ i, -0.74

Whole records, quoted from the list.
Cn1c(CCNC(=O)C2CC2)nc2cc(NC(=O)C3CCCCC3)ccc21 in the list: Anaer choline gr = i; Anaer choline gr early = 0.85
CCCCOc1ccc(C(=O)N(Cc2ccccc2)C2CCS(=O)(=O)C2)cc1 (stereo unspecified) in the list: Anaer choline gr = i; Anaer choline gr early = -0.18
O=C(CN1C(=O)CCn2nc(-c3cccc(Cl)c3)cc21)N1CCN(c2ccccn2)CC1 in the list: Anaer choline gr = i; Anaer choline gr early = -0.81

Following part
Values in the order: Anaer choline gr, Anaer choline gr early
- COC(=O)c1c(NC(=O)CS(=O)(=O)c2ccc(C)cc2)sc2c1CCCC2
→ i, 1.26
- CC(C)CCNC(=O)CSc1nnc2n(CC(C)C)c(=O)c3sccc3n12
→ i, 0.09
- CNC(=O)C1CCN(Cc2noc(-c3ccc(F)cc3)n2)CC1
→ i, -0.11
- CCCCN(Cc1nc2nc(C)cc(C)n2n1)C(=O)c1ccc(Cl)cc1
→ i, 0.12
- O=C(Nc1ccc(N2CCCS2(=O)=O)cc1)c1ccc(Br)cc1
→ i, 0.69
- Cc1ccc(-c2nccc(N3CCCC(C(=O)NC(C)c4ccc(C)cc4)C3)n2)cc1 (stereo unspecified)
→ i, 0.13
- CCc1cc(C2CCCN2C(=O)Nc2ccc(F)cc2F)on1 (stereo unspecified)
→ i, 1.02
- COc1ccc(CNc2nc3nc(CN4CCCC4)cc(=O)n3[nH]2)cc1OC
→ i, -0.25
- CCOC(=O)C1CCCN(C(=O)C2CCN(Cc3cn(C)c4ccc(Cl)cc34)CC2)C1 (stereo unspecified)
→ i, -0.65
- CCN(Cc1ccccc1)C(=O)CN(C)S(=O)(=O)c1ccc2c(c1)CC(C)N2C(=O)C1CC1 (stereo unspecified)
→ i, -0.93
- O=S(=O)(c1ccc2c(c1)-c1oncc1CO2)N1CCN(C(c2ccccc2)c2ccccc2)CC1
→ i, -0.77
- Cc1cc(-c2csc(S(=O)(=O)NCCCN3CCN(c4ccccc4F)CC3)c2)on1
→ i, -1.88
- O=C(C1CCN(c2nc3ccccc3n3cccc23)CC1)N1CCN(c2ccc(F)cc2)CC1
→ i, 0.82
- CC(C)OCCCn1c(=O)c2cc(Cl)ccc2n2c(SCc3ccccc3)nnc12
→ i, -0.95
- COC(=O)c1ccc(Cl)cc1NC(=O)CSc1ncc(S(=O)(=O)c2ccc(Br)cc2)c(=O)[nH]1
→ i, -1.26
- Cc1ccc2c(c1)C(O)(C1SC(N)=NC1=O)C(=O)N2 (stereo unspecified)
→ i, -0.61
- Cc1oc(-c2ccccc2)nc1Cn1c(C(=O)c2cccc(F)c2)nc2ccccc21
→ i, 0.08
- Cc1c(Cl)cccc1NC(=O)CCC(=O)N1CCSc2ccccc21
→ i, -0.02
- Cc1c(Cl)cccc1NC(=O)CCc1nc(CSc2nc3ccccc3o2)no1
→ i, 0.45
- COc1cccc(-c2csc(Cc3nc(-c4cccc(Cl)c4)no3)n2)c1
→ i, 2.36
- O=C(Nc1ccc(N2CCN(Cc3ccccc3)CC2)cc1)c1cccc(-n2cnnc2)n1
→ i, 0.41
- CCOC(=O)c1cnn(-c2cc(C)nc3c(C)c(-c4ccccc4)nn23)c1N
→ i, -0.31
- CCc1nc2nc3c(c(N4CCN(c5cc(Cl)ccc5C)CC4)n2n1)CCC3
→ i, -0.09
- CNC(=O)c1nc(C(C)C)nc2c1OCCO2
→ i, 0.62
- CCOC(=O)c1ccccc1NC(=O)Cn1nnc2sc3c(c2c1=O)CCC(C)C3 (stereo unspecified)
→ i, 0.54
- Cn1ncc2c(Nc3cccc(Cl)c3)nc(N3CCN(C4CCCCC4)CC3)nc21
→ i, -1.49
- COc1ccc(CN2CN=C(NS(=O)(=O)c3ccc(C)cc3)NC2)cc1
→ i, 1.21
- Cc1ccc(CNC(=O)c2ccc(N3C(=O)CCS3(=O)=O)cc2)cc1
→ i, 0.25
- CCc1ccc(NC(=O)CCCN2C(=O)C(c3ccccc3)Oc3cccnc32)cc1 (stereo unspecified)
→ i, 1.78
- CCCC1CC(C(=O)NC(C(C)Cl)C2OC(SC)C(O)C(O)C2O)N(C)C1 (stereo unspecified)
→ i, -3.37
- O=C(Nc1cc(-c2cccs2)no1)C1CCC1
→ i, -0.74
- Cn1cc(S(=O)(=O)N2CCCCC2)cc1C(=O)Nc1ccc(F)cc1F
→ i, 0.79
- CCOCCCNC(=O)NCCc1nc2cccnc2n1-c1ccccc1
→ i, 0.55
- COc1ccc(NC(=O)CS(=O)(=O)c2ccc3c(c2)S(=O)(=O)N=C(C)N3)c(OC)c1
→ i, 0.86
- COc1cccc(C2C3=C(CC(c4ccc(O)cc4)CC3=O)Nc3onc(C)c32)c1 (stereo unspecified)
→ i, -0.13
- COC(=O)c1cnn2c3c(cnc12)CC(C)CC3 (stereo unspecified)
→ i, -0.53
- O=C(Nc1ccc2c(c1)OCCO2)N1Cc2ccccc2Oc2ncccc21
→ i, 0.12
- O=C(CCCn1nnc2cc(S(=O)(=O)N3CCCC3)ccc21)NCc1ccccn1
→ i, -1.91
- COc1ccc(C2Nc3c(C)cc(C)cc3[C@H]3OCC[C@@H]23)cc1 (stereo partly specified)
→ i, 0.05
- O=C(O)C1CSC(c2ccc(F)cc2)N1 (stereo unspecified)
→ i, 1.51
- O=S(=O)(c1ccc(-c2nnc(C3CC3)o2)o1)N1CCN(c2ccc(F)cc2)CC1
→ i, 0.5
- CCC(C)NC(=O)C1CC(=O)N(c2ccc3c(c2)CCN3C(=O)C2CC2)C1 (stereo unspecified)
→ i, -2.27
- O=C(c1cc(C2CC2)[nH]n1)N1CCN(C2CCCCC2)CC1
→ i, -0.58
- N#CSc1ccc(NC(=O)C2=Cc3cc(Br)ccc3OC=C2)cc1
→ i, -1.65
- CCC1(C)CC(=O)c2c(ccc3oc(C(=O)N4CCc5ccccc5C4)c(C)c23)O1 (stereo unspecified)
→ i, -0.5
- Cc1ccc(C(=O)Nc2cnc(N3CCN(c4cc(C)ccc4C)CC3)c(C(=O)O)c2)cc1
→ i, -0.33
- CCc1onc(C)c1C1CCCN1Cc1ccccc1Cl (stereo unspecified)
→ i, 0.36
- Cc1ccccc1C(=O)N1CCc2cc3cccc(C)c3nc21
→ i, -0.28
- Cc1ccc(S(=O)(=O)N2C(=O)CCC2C(=O)NC2CCCC2)cc1C (stereo unspecified)
→ i, -0.89
- CCCc1cc(=O)n2[nH]c(CNc3ccc(OCC)cc3)nc2n1
→ i, -1.24
- Cc1nn(-c2ccccc2)c2sc(-c3noc(-c4ccccc4F)n3)cc12
→ i, 0.01
